Screening results from PubChem.
A1 inh = caspase 3/7 activation in MEF A1-2A-BIM cells, primary screen, A1 inhibitor project, cell-based, luminescence, HTS; Caspase-Glo 3/7 luminescence, 3 h; percent of clofoctol response, vehicle zero; caspase activation, % (no concentration beside the values); actives 0.066% (n = 330,000); AID 2462, 2010;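 active = over half of replicate activation scores above 10%, or exactly half above 10 with the replicate mean above 10; inconclusive = replicate mean below 10 yet half the replicates above 10; inactive = over half of replicates below 10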;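 also: wells of about 30 µL received 50 nL stock; many hits fall short of the cut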
UCH37 inh = inhibitors of human UCH37 deubiquitinase, primary screen, biochemical, Ub-AMC cleavage, fluorescence. Ubiquitin carboxyl-terminal hydrolase isozyme L5 (Homo sapiens), Q9Y5K5. purified proteasome/UCH37. inhibition, % (test concentration not listed). actives 0.33% (n = 330,000). AID 588478, 2011;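 active = mean of two replicates above 20%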;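 also: 0% = compound-free wells with enzyme and 100% = wells lacking proteasome; stock transfer was 100 nL into about 20 µL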
Target sequence (Q9Y5K5 whole entry, looked up): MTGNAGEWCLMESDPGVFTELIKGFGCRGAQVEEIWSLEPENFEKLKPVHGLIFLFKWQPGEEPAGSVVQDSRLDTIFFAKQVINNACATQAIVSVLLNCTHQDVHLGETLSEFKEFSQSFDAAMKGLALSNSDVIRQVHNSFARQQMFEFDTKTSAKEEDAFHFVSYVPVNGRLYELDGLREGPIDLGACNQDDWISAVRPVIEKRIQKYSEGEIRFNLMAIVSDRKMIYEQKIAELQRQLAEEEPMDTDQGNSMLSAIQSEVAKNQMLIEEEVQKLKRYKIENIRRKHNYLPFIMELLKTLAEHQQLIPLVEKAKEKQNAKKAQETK
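Material: Human UCH37 enzyme supplied as purified proteasome complex | Schedule: 30 min compound-proteasome preincubation then 25 min substrate reaction, room temperature | Detection: AMC fluorescence from Ub-AMC cleavage, excitation 355 nm, emission 460 nm | Benchmarks: Wells without proteasome as full block, compound-free enzyme plus substrate as uninhibited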
Ecoli growth = E. coli growth inhibition, primary screen, OD600. Escherichia coli growth, 23 h; hits give low values. OD600 absorbance (test concentration not listed). actives 0.21% (n = 330,000);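 active = OD600 absorbance below the run mean of sample wells minus 3.6 SD, in any replicate, cut at about 0.56 in these data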;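 also: stock transfer was 300 nL into about 60 µL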
Beta cell apopt = inhibitors of cytokine-induced beta cell apoptosis, primary screen, luminescence; protection from apoptosis, % (concentration not given with the values); INS-1E cytokine-induced death, ATP luminescence, 48 h; percent of positive-control rescue, neutral wells zero; actives 0.8% (n = 300,000);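 active = all replicates at 75% or more, or half of them and the mean; inconclusive = half reach 75% but not the mean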;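 also: 0% = cytokine-treated negative control wells and 100% = positive control rescue; higher means more ATP so stronger rescue from cytokine killing; wells of about 40 µL received 100 nL stock; the first replicate is given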
rRNA inh HTS = reduced GFP signal of wild-type E. coli, primary screen, bacterial rRNA inhibitor project, GFP/RFP fluorescence, OD600, single point; E. coli WT GFP vs humanized-ribosome RFP mutants, 24 h; hits give low values; DMSO median 0, no signal -100; actives 1.6% (n = 350,000); AID 720706, 2013; GFP signal change (wild-type ribosome), % (concentration not given with the values);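 active = significant combined selectivity score with lowered wild-type GFP, culture density cut under 30%, mutant RFP and density less affected; inactive = any of these conditions unmet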; also: one replicate is shown; some compounds called inactive have numbers as strong as hits
T cruzi repl = inhibitors of intracellular T. cruzi growth, primary screen, luminescence, NIH3T3 host cells. T. cruzi beta-gal in NIH3T3, 90 h. inhibition, % (concentration not given with the values). actives 1.4% (n = 300,000). AID 1885, 2009;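 active = mean inhibition across valid replicates above about 55%, limit read from the data; inconclusive = mean below that limit but half or more replicates reach it; inactive = mean below it, under half of replicates reach it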;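 also: signal also drops with host cell toxicity which is not excluded here; 0% = plate median of DMSO wells and 100% = zero luminescence signal; higher percent means less beta-gal luminescence so fewer parasites; stock transfer was 50 nL into about 50 µL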
MLL AF4-AF9 inh = inhibitors of AF4 peptide binding to AF9, primary screen, biochemical, AlphaScreen, biotin-AF4 peptide, FLAG-AF9, single point | Protein AF-9 (Homo sapiens), P42568 | inhibition, % at 10 µM | actives 0.47% (n = 350,000);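 active = every replicate reaching a set inhibition limit, whatever the replicate mean, cut at about 25% in these data; inconclusive = mean inhibition reaches that limit but some replicates miss it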;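 also: 0% = plate neutral control median and 100% = total signal loss; the record names both 10 and 1 µM as test concentration; the first replicate is given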
Target sequence (P42568 whole entry, looked up): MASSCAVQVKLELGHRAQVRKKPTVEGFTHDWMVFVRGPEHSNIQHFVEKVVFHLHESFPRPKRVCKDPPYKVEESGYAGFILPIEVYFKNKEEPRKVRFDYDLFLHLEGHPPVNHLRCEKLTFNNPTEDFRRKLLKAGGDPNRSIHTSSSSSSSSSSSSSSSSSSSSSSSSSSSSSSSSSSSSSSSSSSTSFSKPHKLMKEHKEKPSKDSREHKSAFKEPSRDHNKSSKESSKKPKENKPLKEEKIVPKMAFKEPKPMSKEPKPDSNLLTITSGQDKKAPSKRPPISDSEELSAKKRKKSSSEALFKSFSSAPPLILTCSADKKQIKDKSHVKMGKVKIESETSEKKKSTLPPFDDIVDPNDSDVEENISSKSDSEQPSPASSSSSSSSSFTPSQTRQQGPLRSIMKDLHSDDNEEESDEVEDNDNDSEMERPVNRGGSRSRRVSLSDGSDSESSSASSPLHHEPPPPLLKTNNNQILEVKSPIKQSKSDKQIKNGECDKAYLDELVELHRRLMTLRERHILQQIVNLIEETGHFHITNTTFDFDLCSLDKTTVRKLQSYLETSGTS
FGF22 binding = binders of human FGF22 protein, primary screen, FGF22 synaptogenesis inhibitor project, biophysical, thermal shift, single point; calls only at 9.99 µM; actives 1.5% (n = 340,000); recombinant FGF22 thermal shift, SYPRO orange fluorescence; percent of sucrose octasulfate shift, DMSO zero;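 active = melting point raised past a set limit in the mean and every replicate; inconclusive = no clear call; three in four hits are not shown here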
Target sequence (Q9HCT0 whole entry, looked up): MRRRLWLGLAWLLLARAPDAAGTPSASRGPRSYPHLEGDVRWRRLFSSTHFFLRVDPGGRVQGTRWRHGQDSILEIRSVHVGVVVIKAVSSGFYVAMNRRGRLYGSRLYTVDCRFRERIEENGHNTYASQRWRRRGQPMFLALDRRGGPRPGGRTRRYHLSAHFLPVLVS
rRNA inh HTS OD600 = second read-out of rRNA inh HTS, no call of its own (marks repeat the call); OD600 change, %; measured here: OD600 growth;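 optical density of the mix in the first replicate; 0 = DMSO median and -100 = no signal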
rRNA inh HTS RFP = second read-out of rRNA inh HTS, no call of its own (marks repeat the call); RFP signal change, %; measured here: RFP humanized mutant strains;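 first replicate; 0 = DMSO median and -100 = no signal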
Starred values were filed as active, the others as inactive; i = inactive; ? = inconclusive; nt = no result given. The list is partial. The share of hits here may be higher or lower than overall.

SMILES,A1 inh,UCH37 inh,Ecoli growth,Beta cell apopt,rRNA inh HTS,rRNA inh HTS OD600,rRNA inh HTS RFP,T cruzi repl,MLL AF4-AF9 inh,FGF22 binding
CSc1nnc(-c2ccc([N+](=O)[O-])cc2)o1,-1.2,5.6,0.71,2,10,6,1.0,5,0.9,i
COc1cc(OC)cc(C(=O)NC(c2ccccc2)c2ccccc2)c1,0.7,3.7,0.71,3,3,10,-0.6,-3,-1.4,i
Cc1ccc(S(=O)(=O)NCC(=O)N(CC(=O)NCC2CCCO2)Cc2ccco2)cc1 (centres undefined),0.4,0.9,0.72,-4,12,7,0.7,-14,-1.8,i
O=C(CN1CCCc2ccccc21)NCCc1ccc(F)cc1,0.8,4.0,0.71,-4,-9,-16,2.8,-9,4.7,i
Cc1ccc(N(C(=O)CNC(=O)c2ccco2)C(C(=O)NC2CCCCC2)c2ccncc2)cc1F (centres undefined),-0.1,3.2,0.67,-1,9,6,2.4,8,3.1,i
COc1ccc(S(=O)(=O)N2CCCCCC2)cc1C(=O)N(CC(C)C)C1CCS(=O)(=O)C1 (centres undefined),-0.1,3.8,0.66,-2,5,7,0.5,8,-1.3,i
O=C(COc1c(F)c(F)cc(F)c1F)NC(=O)NC1CCCC1,-0.1,1.1,0.71,-4,nt,nt,nt,-16,nt,nt
COCCCNC(=S)Nc1c(C)cc(C)cc1C,-0.4,4.7,0.7,-14,2,6,-1.2,-36,0.0,i
Cc1ccccc1C(=O)Nc1cc(C(F)(F)F)ccc1-n1cncn1,-0.8,-2.0,0.7,-2,2,10,0.9,nt,0.4,i
CC(Sc1cnc2ccccc2n1)C(=O)O (centres undefined),-0.2,5.2,0.72,-7,nt,nt,nt,-7,nt,nt
COc1ccc(-c2csc3nc(C)nc(N4CCC(C)CC4)c23)cc1OC,?,0.1,0.73,-7,-19,-37,-5.2,10,5.6,nt
O=C(NCc1cccnc1)c1cc2ccccc2oc1=O,-0.1,-19,0.68,-5,9,4,-4.0,7,-10,i
CC(C(=O)N1CCOCC1)c1ccccc1 (centres undefined),0.6,-0.4,0.7,-7,0,10,0.2,nt,-0.6,i
Cc1ccc(SCCC(=O)OCC(=O)Nc2ncc(Cl)cc2Cl)cc1,-0.8,-5.9,0.73,-7,nt,nt,nt,-25,nt,nt
Cc1cc(C)c(NC(=O)C2c3ccccc3Oc3ccccc32)c(C)c1,0.9,1.2,0.65,-2,5,-2,-3.0,-28,-1.8,i
Cc1ccc2[nH]cc(C(=O)CN3CCN(c4ccccc4F)CC3)c2c1,1.4,-3.2,0.76,-6,nt,nt,nt,10,nt,nt
c1ccc2sc(Sc3ncnc4sccc34)nc2c1,0.8,1.6,0.7,-44,17,5,2.3,39,-8.4,i
COc1ccc(CCNC(=O)c2cc(CC(C)C)on2)cc1OC,1.4,4.3,0.74,0,-2,-8,-4.7,-3,-2.9,i
COc1ccc(N(CC(=O)Nc2cc(C)ccc2C)S(=O)(=O)c2ccccc2[N+](=O)[O-])c(OC)c1,0.6,5.2,0.71,2,-1,-6,0.6,19,2.8,i
O=C(CSc1nc2[nH]c(=O)cc(O)c2s1)Nc1ccc(Br)cc1,0.0,6.2,0.65,-3,0,9,3.0,nt,0.8,i
CCN(CC)CCNC(=O)CCc1c(C)nc2c(c(C)nn2-c2ccc(C)cc2)c1C,0.9,-58,0.65,-3,-5,-11,12,4,5.6,i
N#Cc1c(N2CCCC2)nsc1-c1ccccc1,-4.6,0.4,0.63,nt,1,1,-0.2,-6,nt,nt
O=C(COC(=O)/C=C/c1cccc([N+](=O)[O-])c1)Nc1cccnc1Cl,-2.0,0.1,0.73,1,14,14,0.8,nt,0.1,i
O=C(Nc1nnc(C2=COCCO2)o1)c1ccc(Br)cc1,-1.4,nt,nt,-2,-68,-83,-22,14,0.6,i
COc1cc(S(=O)(=O)Nc2cccc(C)c2)ccc1NC(=O)c1ccncc1,0.2,3.4,0.7,2,nt,nt,nt,12,nt,nt
CCOC(=O)C1=NNC(=O)C1,nt,4.7,0.68,nt,31,41,-2.4,nt,-4.4,i
CCn1c(O)c(/C=C2\C=NN=C2c2ccc(C)cc2)sc1=S,-0.2,3.5,0.67,10,16,5,4.0,-10,2.2,i
CCn1ncc(NC(=O)Nc2cccc(C(F)(F)F)c2)c1C(N)=O,-1.0,0.2,0.65,-4,nt,nt,nt,12,nt,nt
O=C(Cn1c2ccccc2c2nc3n(c(=O)c21)CCS3)Nc1ccccc1,1.0,-57,0.73,1,4,6,-0.8,5,-2.6,i
CCCn1nnnc1NCc1ccccc1F,0.2,6.1,0.7,0,10,11,-0.5,-2,-6.4,i

Grouped by structure, the entries above containing a Cl atom
SMILES,A1 inh,UCH37 inh,Ecoli growth,Beta cell apopt,rRNA inh HTS,rRNA inh HTS OD600,rRNA inh HTS RFP,T cruzi repl,MLL AF4-AF9 inh,FGF22 binding
Cc1ccc(SCCC(=O)OCC(=O)Nc2ncc(Cl)cc2Cl)cc1,-0.8,-5.9,0.73,-7,nt,nt,nt,-25,nt,nt
O=C(COC(=O)/C=C/c1cccc([N+](=O)[O-])c1)Nc1cccnc1Cl,-2.0,0.1,0.73,1,14,14,0.8,nt,0.1,i

Remaining list, next part
SMILES,A1 inh,UCH37 inh,Ecoli growth,Beta cell apopt,rRNA inh HTS,rRNA inh HTS OD600,rRNA inh HTS RFP,T cruzi repl,MLL AF4-AF9 inh,FGF22 binding
O=C(Cc1ccc(NC(=O)C2CCN(C(=O)C3CCCCC3)CC2)cc1)Nc1cccc(C(=O)N2CCCCC2)c1,nt,-1.5,0.69,nt,0,-8,0.6,nt,0.1,nt
CS(=O)(=O)N1CCC(Oc2ccccc2C(=O)NC(C2CC2)C2CC2)CC1,-0.4,0.1,0.68,-2,9,0,-1.2,-3,0.1,i
O=C(Nc1cc(S(=O)(=O)N2CCOCC2)ccc1N1CCOCC1)c1cc2c(s1)CCC2,1.1,-0.9,0.7,5,-11,-16,2.0,15,20,i
COc1ccc(N(C(C)C(=O)N/N=C/c2cc(Br)c(C)o2)S(C)(=O)=O)cc1 (centres undefined),0.1,nt,nt,-11,7,-2,2.2,12,3.9,i
O=C(COC(=O)c1ccc(Br)o1)Nc1ccc(F)cc1[N+](=O)[O-],0.5,1.8,0.7,-5,10,12,0.2,nt,-1.0,i
O=C(CCCCCn1c(=O)[nH]c2ccsc2c1=O)N1CCCCC1,-0.2,2.4,0.69,0,nt,nt,nt,-5,nt,nt
COc1ccc(OC)cc1,nt,1.4,0.68,nt,0,-5,0.4,nt,-3.7,i
Cc1nc(NS(=O)(=O)c2ccccc2)sc1C(=O)NNS(=O)(=O)c1ccccc1,0.1,3.8,0.67,-9,-4,2,-2.8,1,0.9,i
O=C1c2ccccc2C(=O)C1c1ccc2ccccc2n1,-5.9,3.9,0.72,38,nt,nt,nt,12,nt,nt
O=[N+]([O-])c1ccc(S(=O)(=O)Nc2nnc(C3CCCCC3)s2)cc1,-0.2,-0.4,0.72,8,0,8,-1.0,0,1.4,i
O=C(O)c1ccc(C(=O)c2cc([N+](=O)[O-])cc([N+](=O)[O-])c2)cc1,nt,-0.9,0.69,nt,-13,11,-3.8,nt,0.4,i
S=C(NCc1ccc2c(c1)OCO2)NCc1ccc2c(c1)OCO2,-0.5,2.9,0.67,-4,nt,nt,nt,23,nt,nt
CCN(c1ccccc1)S(=O)(=O)c1ccc(Cl)c(NC(=O)COC(=O)c2cccc(OC)c2O)c1,0.7,-1.8,0.71,-7,-5,-5,-3.6,4,-42,i
Cc1n[nH]c(=S)n1Cc1ccccc1,-0.2,2.6,0.72,-7,9,7,-2.2,-2,-16,i
Cc1ccc([N+](=O)[O-])cc1S(=O)(=O)N1CCCN(C)CC1,2.5,5.1,0.67,-5,12,18,2.8,-9,2.3,i
S=C1NC[C@H](Cc2ccccc2)N1CCc1cccc2ccccc12,-0.3,-0.4,nt,1,-19,-27,-5.7,8,1.2,i
O=C1c2cnc3nc(SCc4cccc(Cl)c4)nn3c2CC2c3ccccc3CCN12 (centres undefined),-0.8,-206,0.79,-1,nt,nt,nt,22,nt,nt
Cc1ccc(S(=O)(=O)N2CCN(C(=O)COC(=O)CSc3ccc(C)c(C)c3)CC2)c(C)c1,nt,-1.4,0.74,nt,7,6,7.1,nt,-0.3,i
O=C(CN1C(=O)c2ccccc2C1=O)Nc1cccc(Cl)c1,0.4,7.1,0.69,-2,11,8,-0.2,-7,1.1,i
CS(=O)(=O)c1ccccc1C(=O)Nc1cc(Cl)ccc1-n1cncn1,-0.6,-0.6,0.63,1,2,0,-1.2,-6,-19,i
c1cn2cc(CSC3CCCCC3)nc2s1,-5.0,2.6,0.72,5,4,10,2.6,3,nt,nt
CNC(=O)c1cccc(NC(=O)c2cc(-c3ccccc3)nc3c2cnn3C(C)C)c1,-0.9,-6.4,0.66,6,-1,-18,2.5,nt,10,i
COc1ccc(Cl)cc1N(C(=O)c1ccco1)C(C(=O)NC1CCCC1)c1ccco1 (centres undefined),0.4,3.1,0.69,-3,9,-2,7.7,16,-3.4,i
S=C(NCCc1c[nH]c2ccccc12)NC1CCCC1,-0.8,-0.7,0.7,6,-2,0,-0.6,0,-3.2,i
O=C(NCCN1CCOCC1)/C(=C\c1ccc(Br)cc1)NC(=O)c1cccs1,0.7,-0.2,0.7,nt,16,16,2.4,-2,1.7,i
Cc1ccccc1NC(=O)CN1C(=O)N/C(=C\c2ccccc2OCc2ccc(C(=O)O)cc2)C1=O,0.5,-20,0.66,-3,-2,2,-0.2,-10,-4.1,i
CCN(CC)c1nc(C)c(C(=S)Nc2cc([N+](=O)[O-])ccc2Cl)s1,0.6,9.5,0.71,-8,25,21,6.5,-14,-3.6,i
CCC(c1nnnn1Cc1ccc(F)cc1)N1CCN(C2CCCCC2)CC1 (centres undefined),0.7,1.3,0.73,-1,nt,nt,nt,9,nt,nt
Cc1ccc(-c2nc(C#N)c(NCc3ccco3)o2)cc1,-0.9,-31,0.79,-8,nt,nt,nt,2,nt,nt
CN(C)CCCNc1oc(-c2ccc(Cl)cc2)nc1S(=O)(=O)c1ccccc1,-1.1,4.8,0.69,10,-6,-3,7.5,nt,15,i
O=C(Nc1ccc(Cl)cc1)Nc1nc(-c2ccccc2O)cs1,-1.1,1.9,0.68,109*,-48,-57,-11,40,-12,i
